From PubChem BioAssay
Mtb betalactam = beta-lactam sensitization of Mtb H37Rv; M. tuberculosis H37Rv growth with meropenem, percent inhibition; hits of this screen are not shown here; inhibition, % at 25 µM; actives 0.27% (n = 330,000);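 active = about 74% or more and at least 40 points above the plate without the antibiotic, then above 30% in a dose series; inconclusive = first-round hits that could not be retested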;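 note: growth measured after seven days incubation then overnight dye step; 0% = bacteria only wells and 100% = bacteria with antibiotic; twin plates without the antibiotic show which effects depend on it; some results filed as inactive read as strong as hits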
RecA splice inh = blocks M. tuberculosis RecA intein splicing. AID 2221. inhibition, %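 (about 9 µM by stock and volumes)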. P9WHJ3. actives 0.75% (n = 290,000). cell-free RecA intein splicing, fluorescence; in the data active = inhibition above about 30%; inconclusive = no clear call, values can overlap the other calls;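 note: 0% = vehicle wells and 100% = reference inhibitor control wells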
Target sequence (P9WHJ3 whole entry, looked up, canonical isoform): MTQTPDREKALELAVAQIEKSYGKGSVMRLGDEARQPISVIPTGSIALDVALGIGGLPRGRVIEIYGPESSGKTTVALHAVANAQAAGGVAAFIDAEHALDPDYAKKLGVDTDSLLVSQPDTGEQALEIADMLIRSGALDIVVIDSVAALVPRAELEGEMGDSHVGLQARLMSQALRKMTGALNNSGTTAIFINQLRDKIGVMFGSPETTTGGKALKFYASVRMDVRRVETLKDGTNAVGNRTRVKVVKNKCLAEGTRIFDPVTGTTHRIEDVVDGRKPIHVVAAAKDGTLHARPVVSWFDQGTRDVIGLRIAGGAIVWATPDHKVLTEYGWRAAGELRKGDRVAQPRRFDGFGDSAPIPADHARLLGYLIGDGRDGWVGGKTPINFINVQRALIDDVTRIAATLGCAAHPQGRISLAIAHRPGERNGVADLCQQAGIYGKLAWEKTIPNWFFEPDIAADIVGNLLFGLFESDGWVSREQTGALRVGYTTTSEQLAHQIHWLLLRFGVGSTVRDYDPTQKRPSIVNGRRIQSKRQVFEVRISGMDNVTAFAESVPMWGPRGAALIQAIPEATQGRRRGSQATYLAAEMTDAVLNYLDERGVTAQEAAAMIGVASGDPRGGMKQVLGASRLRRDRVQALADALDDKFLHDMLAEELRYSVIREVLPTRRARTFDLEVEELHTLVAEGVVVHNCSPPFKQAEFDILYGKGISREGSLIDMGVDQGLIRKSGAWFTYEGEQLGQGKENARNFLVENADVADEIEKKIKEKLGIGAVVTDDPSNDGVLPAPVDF
YopH PTP inh = inhibitors of Yersinia enterocolitica YopH tyrosine phosphatase | actives 0.16% (n = 140,000) | inhibition, %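 (about 10 µM by stock and volumes)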 | fluorescence Ex485/Em525 | AID 898;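 active = inhibition of 50% or more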;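 note: controls were vehicle for no effect and minimum signal wells for full effect; inactives centre near -20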
Mtb H37Rv = M. tuberculosis H37Rv growth inhibitors, H37Rv strain (AID 1626) | inhibition, % at 10 µM, or IC50 in µM where a hit was titrated | actives 0.95% (n = 220,000) | M. tuberculosis H37Rv growth inhibition; higher % means a stronger effect;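 active = confirmed in a dose series; inconclusive = inhibition above 80% but not taken into the dose series; inactive = below 80% or under 30% at every dose of the series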;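 note: bacteria incubated seven days before Alamar blue readout; 0% = bacteria only wells and 100% = bacteria with antibiotic wells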
Arbovirus inh = blocks arbovirus infection | arbovirus infection cell-based antiviral screen | actives 0.37% (n = 200,000) | inhibition, % at 10 µM | AID 1251;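 active = inhibition from about 30%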;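 note: bluetongue infection of BSR cells; cell survival read as ATP light after 72 h; 0% = infected wells without compound and 100% = uninfected wells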
Arbovirus inh repeat = second read-out of Arbovirus inh, no call of its own (marks repeat the call); inhibition, %; measured here: 10K subset replicate screen; many hits read low in the repeat;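 first of two repeat runs on a subset; 0% = infected and 100% = uninfected wells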
The depositor's hits bear a star; i = inactive; u = inconclusive; x = not tested or not shown. An excerpt. The share of hits here may be higher or lower than overall.

SMILES	Mtb betalactam	RecA splice inh	YopH PTP inh	Mtb H37Rv	Arbovirus inh	others
CC(OC(=O)c1cccnc1)C(=O)Nc1ccc2c(c1)OCO2 (stereo unspecified)	-1	-2.1	x	-2%	11
Cc1cc(C(=O)OCC(=O)c2ccc3c(c2)NC(=O)CO3)c2ccccc2n1	-7	0.0	-6	0%	2
CC(=O)Nc1ccc(Nc2nnc(-c3ccc(C)c(S(N)(=O)=O)c3)c3ccccc23)cc1	5	-2.6	x	x	x
O=C(/C=C/c1ccccc1[N+](=O)[O-])Oc1ccccc1	99	1.8	x	x	x
CCN(CC)c1nc(Oc2ccc(C(=O)NN)cc2)nc(Oc2ccc(C(=O)NN)cc2)n1	-1	-3.6	x	x	x
CCOc1ccccc1CN1CCNC(=O)C1CC(=O)NCc1nc(C)cs1 (stereo unspecified)	-6	0.1	x	x	x
CCOC(=O)c1cn(-c2ccccc2)nc1-c1cccnc1	-4	3.3	-39	1%	-7	Arbovirus inh repeat=-3
CCSc1nc2c(cnn2-c2ccc(C)c(C)c2)c(=O)[nH]1	-2	2.1	-43	5%	12	Arbovirus inh repeat=-4
OC(COCC1COc2ccccc2O1)CN1CCN(c2ccc(F)cc2)CC1 (stereo unspecified)	57	-1.5	-12	-2%	8
COc1cccc(/C=N/NC(=O)c2ccc(=O)n(C)c2)c1O	6	2.6	-33	-2%	-21
CCN(CC)S(=O)(=O)c1cccc(C(=O)Nc2cc3oc4ccccc4c3cc2OC)c1	1	-6.0	-24	0%	-5
CCCc1cc(=O)[nH]c(SCC(=O)OCc2ccccc2)n1	-6	1.1	-33	-2%	0
CC1=CC(C)(C)Nc2ccc(OC(=O)CCN3C(=O)c4ccccc4C3=O)cc21	-5	-21	-28	-5%	-10
COC(=O)c1cc(-c2c(C)oc3cc(OC)ccc3c2=O)c(C)o1	3	4.6	-34	-28%	4
CCn1c(C(=O)O)c(CC(=O)Nc2ccc(Br)cc2C)c2ccccc21	-4	-4.8	x	x	x
Cc1cc(C)cc(-n2nc(C)cc2N)c1	-8	7.6	-48	0%	-14
O=C(Cn1cc2c(n1)CCCC2)NCCCN1CCCC1	0	0.8	-52	-3%	4	Arbovirus inh repeat=-1
Cc1c(Br)c(C(F)(F)F)nn1CC(=O)N1CCCC1	6	-1.3	-19	12%	6
O=C(O)C1C2C=CC(C2)C1C(=O)NC1CCN(Cc2ccccc2)CC1 (stereo unspecified)	-11	-1.3	-36	-13%	-4
CC1CN(CCCOc2ccccc2[N+](=O)[O-])CC(C)O1 (stereo unspecified)	-5	1.0	-12	-1%	4
COc1cccc(OC)c1C(=O)OCCCOC(=O)c1c(OC)cccc1OC	7	4.3	x	x	x
CCc1ccccc1N(CC(=O)N1CCCC1)S(C)(=O)=O	0	-0.4	x	x	x
COc1ccc(C2C(C(=O)NCc3cccnc3)c3cc(OC)c(OC)cc3C(=O)N2C)cc1 (stereo unspecified)	4	-0.9	-26	0%	-2
O=C(CCN1CCCC1)Nc1ccc(Br)cc1	-6	2.8	-29	0%	-2
CCN(CC(=O)Nc1ccccc1C(F)(F)F)C(=O)COc1cccc2c1OC(C)(C)C2	2	-0.2	x	x	x

Among those listed so far, 2 contain a nitro group on carbon:
SMILES	Mtb betalactam	RecA splice inh	YopH PTP inh	Mtb H37Rv	Arbovirus inh	others
O=C(/C=C/c1ccccc1[N+](=O)[O-])Oc1ccccc1	99	1.8	x	x	x
CC1CN(CCCOc2ccccc2[N+](=O)[O-])CC(C)O1 (stereo unspecified)	-5	1.0	-12	-1%	4

Following part.
SMILES	Mtb betalactam	RecA splice inh	YopH PTP inh	Mtb H37Rv	Arbovirus inh	others
COc1ccc(CCN(C)c2ncnc3sccc23)cc1OC	-1	-0.7	x	8%	6
Cc1cc(C(=O)NCCc2ccc(Cl)cc2)c(C)o1	-1	3.9	x	x	x
Cc1cc(C)nc(SCc2nnc(SCC(=O)Nc3ccc(C)c(C)c3)o2)n1	79	-0.4	8	1%	3
COC(=O)c1sc2nc(CN3CCOCC3)nc(N3CCOCC3)c2c1C	10	-0.8	-2	2%	2
Nc1cccc(-c2csc(-n3ncc(C(=O)O)c3C(F)(F)F)n2)c1	-3	7.8	x	x	x
COc1ccccc1-c1cc(C(F)(F)F)c(C#N)c(=O)[nH]1	-9	-8.7	x	-2%	19
CC(O)CNc1ccc(-c2n[nH]c(=O)c3ccccc23)cc1[N+](=O)[O-] (stereo unspecified)	0	-0.9	x	x	x
CCOC(=O)c1cccc(NC(=O)c2ccco2)c1	-1	3.9	-38	-6%	-3
Cc1ccccc1N1C(=O)c2cccc([N+](=O)[O-])c2C1=O	x	x	x	-6%	3
COc1ccc(CC(=O)NCC2COc3ccccc3O2)cc1 (stereo unspecified)	-11	-0.4	x	11%	-3
O=C(c1ccc(Cl)nc1)N1CCN(S(=O)(=O)c2ccc(Cl)cc2)CC1	-8	-0.3	x	5%	9
CCC1S/C(=N/N=C/c2ccco2)N(Cc2ccccc2)C1=O (stereo unspecified)	7	13	x	2%	x
COc1ccc(-c2nnc(SC)o2)c(OC)c1	-8	-1.9	x	3%	-1
CCOC(=O)CSC1=C(C#N)C(=O)NC(c2ccc(OC)c(OC)c2)S1 (stereo unspecified)	-12	19	-16	-19%	-2
COc1ccccc1NC1SC(=O)N(c2ccccc2)C1=O (stereo unspecified)	-1	2.8	0	-15%	0
Cc1ccccc1CCN1CCCC(CN(C)C(=O)c2ccc3ncccc3c2)C1 (stereo unspecified)	-5	0.1	x	x	x
COc1ccc(NC(=O)Nc2cccc(F)c2)c(OC)c1	-6	0.3	x	5%	4
O=C(CSc1nc2ncccc2[nH]1)Nc1ccccc1-c1ccccc1	4	0.4	x	x	x
CC(=O)N1CCN=C1SCc1ccc(F)cc1	-11	2.1	-35	-4%	0
COc1ccc(N(CC(=O)NCc2cccs2)S(=O)(=O)c2c(C)n[nH]c2C)cc1	-4	0.2	-18	-7%	1
COc1ccc(-n2c(C)c(C)c3c(NCCN(C)C)ncnc32)cc1	-8	-0.1	x	x	x
CCC1CCC2(CC1)NNC(=S)NN2	8	9.1	-9	0%	-7
CCN1C(=O)c2ccccc2Sc2ccc(C(=O)NCCCN3CCOCC3)cc21	-11	7.6	x	1%	-8
CCN1C(=O)[C@@H]2[C@@H](c3ccc(-c4ccc(Cl)c(Cl)c4)cc3)N3CCCC[C@@]3(C(=O)OC)[C@@H]2C1=O	1	4.3	x	x	x
CCc1ccc(OC(=O)Nc2ccccc2)cc1	9	2.6	x	x	x

(list continues)
SMILES	Mtb betalactam	RecA splice inh	YopH PTP inh	Mtb H37Rv	Arbovirus inh	others
CCN(Cc1ccccc1)S(=O)(=O)c1ccc2c(c1)NC(=O)CC(=O)N2	3	0.3	x	-3%	-2
CCOC(=O)N1CCN(C(=O)COc2ccc(S(=O)(=O)NC3CCCCC3)cc2C)CC1	-1	-2.0	-16	-3%	6
O=C(CCNS(=O)(=O)c1ccccc1F)N1CCN(C/C=C/c2ccccc2)CC1	-7	0.2	x	x	x
CC(=O)Nc1ccc(S(=O)(=O)NC2(C(F)(F)F)C(=O)Nc3c2c(=O)[nH]c(=O)n3Cc2ccccc2)cc1 (stereo unspecified)	-1	6.6	-30	2%	1
CC(NS(=O)(=O)c1ccccc1)C(=O)Nc1ccc2c(c1)OCCO2 (stereo unspecified)	-2	1.5	x	x	x
C=CCOc1c(CNc2ccc(C(=O)O)cc2)cccc1OCC	11	2.9	-35	-2%	9
O=C(NN=C(Cc1ccccc1)Cc1ccccc1)c1ccc(F)cc1	7	0.7	-16	-5%	1
Clc1cccc(-c2nc(NCc3cccnc3)c3ccccc3n2)c1	78	2.3	-41	74%	-1
Cc1ccc(NC(=O)CN(C)C(=O)c2cc(S(=O)(=O)N(C)C)ccc2N2CCCC2)cc1	-5	2.6	x	x	x
CSc1nn(-c2ccc(C(=O)OC(C(=O)NC(N)=O)C(C)C)cc2)c(=S)s1 (stereo unspecified)	23	-2.3	x	4%	6
COc1ccccc1CCC(=O)Nc1ccc2c(c1)CN(CCCn1cccn1)CC2	10	0.7	x	x	x
Cc1c(C)c2c(OCC(=O)NCc3ccccn3)cc3c(c2oc1=O)CCC(C)(C)O3	-3	-0.7	x	x	x
CC(=O)OCCn1c2nc(=O)[nH]c(=O)c-2nc2cc(C)c(C)cc21	8	i	x	14%	x
Cc1ccc(NC(=O)N2CCN(c3ccccn3)CC2)cc1	1	x	-19	-6%	4
CCN(Cc1ccccc1)C(=O)/C=C/c1ccccc1[N+](=O)[O-]	x	-4.1	x	0%	-6
CCN1CCN(CCCN(Cc2ccco2)C(=S)Nc2cccc(Cl)c2C)CC1	2	-2.3	x	11%	1
COc1ccc(N2C(=O)CCC(C(=O)NCc3ccccn3)C2c2ccc(OC)c(OC)c2)cc1 (stereo unspecified)	-2	0.2	-13	-14%	0	Arbovirus inh repeat=4
CNC(=O)OCCc1nccn1C	-10	-0.1	-25	-7%	1
NNC(=O)c1cccc(COc2ccccc2Br)c1	-9	7.3	-35	x	-25
Cc1ccc(NC(=O)Cc2ccc([N+](=O)[O-])cc2)c(Br)c1	3	-1.4	0	14%	-7
Cc1ccc(CSCC(=O)Nc2ccccc2)cc1	-3	-0.9	x	x	x
COc1ccc(C(=O)/C=C/Nc2ccccn2)cc1	4	x	-14	-3%	-7
Cn1nc(C(F)(F)F)c(-c2ccc(Br)cc2)c1NC(=O)c1ccco1	28	8.8	x	0%	x
COc1cc(/C=N/N2C(C)CCCC2C)cc(Br)c1O (stereo unspecified)	-4	-5.5	x	2%	10
CC(C)(C)OC(=O)N[C@@H](Cc1ccccc1)c1nnc(S(=O)(=O)Cc2ccccc2)o1	63	x	-27	-4%	5

(cont.)
SMILES	Mtb betalactam	RecA splice inh	YopH PTP inh	Mtb H37Rv	Arbovirus inh	others
CCOc1ccsc1C(=O)OC	-9	-3.1	x	1%	x
COc1cccc(/C=N/NC(=O)CNC(=O)C(c2ccccc2)c2ccccc2)c1O	0	0.0	x	x	x
COc1cc(/C=N/NC(=O)CCC(=O)NC2CCCCC2)ccc1C	-2	-2.0	x	-3%	7
Cc1ccc(-c2noc(-c3ccccc3C(=O)NCC3CCCO3)n2)cc1 (stereo unspecified)	5	1.2	-32	-2%	-1
COc1ccc(N(CC(=O)NCc2ccccc2)S(=O)(=O)c2c(C)nn(C)c2C)cc1	5	-0.2	-45	2%	3
CCOC(=O)N1CCN(S(=O)(=O)N2CCCC(C(=O)NCCc3ccc(OCC)c(OCC)c3)C2)CC1 (stereo unspecified)	-8	2.6	x	x	x
CC(C)(C)c1nn(-c2ccccc2)c2[nH]c(=O)c(CNc3ccc4c(c3)OCCO4)cc12	x	-0.3	-17	4%	-18
CCOC(=O)C1=NN(C(=O)c2ccc(C)cc2)C(O)(c2ccc(Cl)cc2)C1 (stereo unspecified)	29	3.8	-62	-5%	7
COc1ccc(C2CC(c3ccc(F)cc3)n3nc(NS(C)(=O)=O)nc3N2)cc1 (stereo unspecified)	8	-3.4	x	-4%	x
COc1cc(NC(=O)CCS(=O)(=O)c2ccc3c(c2)oc(=O)n3C)cc(OC)c1	1	0.8	x	x	x
COc1ccccc1NC(=O)CN1CCN(CC(=O)Nc2ccc(Cl)c(C(F)(F)F)c2)CC1	x	x	-20	u	7
O=C(COc1ccccc1)NCC(=O)N/N=C/c1ccc(O)cc1O	-7	-12	x	1%	x
COc1ccccc1/C=N/Nc1cc(C)nc(N2CCOCC2)n1	-7	-2.6	x	3%	x
COc1ccc(NC(=O)CCCCC#Cc2ccccc2)cc1	97	-2.1	x	61%	x
COc1ccccc1OCCn1cc(/C=N/NC(=O)c2ccncc2)c2ccccc21	98	x	x	u	x
Cc1ccc(OC(C)C(=O)Nc2cc(C)on2)cc1 (stereo unspecified)	-4	-0.1	x	x	x
CC1CC2OC(=O)C3(C)CCCC(C)(C23)C1(O)CCc1ccoc1 (stereo unspecified)	0	0.6	x	-13%	x
C1CCN=C(Nc2nn[nH]n2)CC1	-4	-0.5	-39	3%	11
Cc1ccc(Cn2cc(S(=O)(=O)c3ccc(Cl)cc3)c(=O)c3cc(F)ccc32)cc1	-6	-1.3	-25	0%	-2
COc1ccc(-c2ccc(CCC(=O)O)n2CC(=O)Nc2ccccc2C)cc1	3	1.1	x	x	x

Filtered by structure: the compounds so far with a COOH group
SMILES	Mtb betalactam	RecA splice inh	YopH PTP inh	Mtb H37Rv	Arbovirus inh	others
CCn1c(C(=O)O)c(CC(=O)Nc2ccc(Br)cc2C)c2ccccc21	-4	-4.8	x	x	x
O=C(O)C1C2C=CC(C2)C1C(=O)NC1CCN(Cc2ccccc2)CC1 (stereo unspecified)	-11	-1.3	-36	-13%	-4
Nc1cccc(-c2csc(-n3ncc(C(=O)O)c3C(F)(F)F)n2)c1	-3	7.8	x	x	x
C=CCOc1c(CNc2ccc(C(=O)O)cc2)cccc1OCC	11	2.9	-35	-2%	9
COc1ccc(-c2ccc(CCC(=O)O)n2CC(=O)Nc2ccccc2C)cc1	3	1.1	x	x	x
